From PubChem
NS1 function inh – inhibitors of influenza NS1 protein function; S. cerevisiae slowed by influenza A NS1, growth recovery by OD600; Potency, µM (top dose mostly 46.1 µM), for the others: top-dose activity, positive = more growth; 270,000 tested, 0.4% active; AID 2326; also: actives are rising curves; nearly all actives have a fitted effect of over 50% in size
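Recovery from NS1-induced slow growth read by OD600 in budding yeast switched to galactose assay medium (pH 6.0, -URA) at 1:100 dilution. Compound 23 nl per well; the matching strain lacking NS1 serves as control.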
Marburg entry inh – inhibitors of Marburg virus binding or cell entry. 300,000 tested, 1.8% active. Marburg virus pseudotyped entry inhibition, cell reporter; control for the full effect not named in the record; about a third of the inactives were read at about 46 µM. AID 540276. Potency, µM (doses to about 37.8 µM), for the others: at the highest dose activity change, negative = inhibition, usual class: inhibitors; active = well fitted inhibition curve with a large enough effect; inconclusive = small, poorly fitted or top-dose-only effect, or effect the other way; inactive = flat fitted curve, though single readings scatter; tested in HEK293 cells; about a fifth of its hits are not listed in these tables; also: % is scaled to controls: 0 for no effect and ±100 for the full control effect; luciferase read-out
Lassa entry inh – blocks Lassa virus binding to or entry into cells; Lassa virus pseudotype entry inhibition, cell reporter; control for the full effect not named in the record; Potency, µM (doses to about 37.9 µM), for the others: at the top dose activity change, negative = inhibition, hits mostly inhibitors; 300,000 tested, 1.2% active; active means well fitted inhibition curve with a large enough effect; inconclusive means small, poorly fitted or top-dose-only effect, or effect the other way; inactive means flat fitted curve, though single readings scatter; tested in HEK293 cells; also: % is scaled to controls: 0 for no effect and ±100 for the full control effect; nearly all actives have a fitted effect of over 50% in size; luciferase read-out
RE007 growth inh – less growth of the S. pombe RE007 Vpr strain; S. pombe RE007 Vpr strain, BacTiter-Glo ATP luminescence, 24 h; control for the full effect not named in the record; Potency, µM (doses to about 92.2 µM), without a hit: top-dose activity change, negative = less growth; 360,000 tested, 0.21% active; active = well fitted falling curve with a large enough effect; inconclusive = small, poorly fitted or top-dose-only effect; inactive = no such curve, though single readings can be large or run the other way;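 also: % is scaled to controls: 0 for no effect and ±100 for the full control effect; nearly all actives have a fitted effect of over 50% in size; the assay follows cell death caused by Vpr and the record does not say whether a fall means rescue or toxicity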
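Fission yeast strain RE007, carrying one chromosomally integrated HIV-1 vpr copy, was seeded at OD 0.01 in PMG+AL medium with 23 nL pinned compound. After 24 h at 30 °C and 99% humidity, viability was read by BacTiter-Glo luminescence.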
SARS PLP yeast – inhibitors of SARS-CoV papain-like protease in yeast; S. cerevisiae expressing SARS-CoV PLpro, growth rescue; control for the full effect not named in the record; 330,000 tested, 0.19% active; Potency, µM (top dose mostly 32.9 µM), inactives show top-dose activity, positive = growth rescue; also: 0% is about no effect; nearly all actives have a fitted effect of over 55% in size; growth read by luminescence after 48 h
Cruzain noTriton – blocks cruzain activity in detergent-free assay. P25779. purified cruzain, Z-FR-AMC fluorescence, no detergent. Potency, µM, for the others: max response, negative = inhibition, actives largely listed as inhibitors. 200,000 tested, 2.3% active; active = well fitted curve in the direction sought with a large enough effect; inconclusive = small, poorly fitted or top-dose-only effect, or another doubt; inactive = no such curve, though single readings can be large; an effect the other way counts as inactive or inconclusive;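 also: plate controls were enzyme without inhibitor for no effect and buffer without enzyme for full effect; nearly all actives have a fitted effect of over 40% in size; top concentration of the series not given in the record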
Target sequence (P25779 123-467 limits assumed): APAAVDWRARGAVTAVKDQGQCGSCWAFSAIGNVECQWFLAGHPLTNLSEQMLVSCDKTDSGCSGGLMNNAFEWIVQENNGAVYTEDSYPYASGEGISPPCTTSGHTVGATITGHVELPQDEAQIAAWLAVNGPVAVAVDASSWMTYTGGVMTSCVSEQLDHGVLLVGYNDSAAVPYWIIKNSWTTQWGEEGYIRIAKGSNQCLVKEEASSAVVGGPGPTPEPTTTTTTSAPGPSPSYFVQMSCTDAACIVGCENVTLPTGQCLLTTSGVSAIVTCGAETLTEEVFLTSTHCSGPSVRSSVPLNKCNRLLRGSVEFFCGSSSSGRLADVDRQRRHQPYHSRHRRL
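Purified cruzain at 1.5 nM, pre-incubated 15 min with compound at room temperature in 100 mM sodium acetate pH 5.5, 5 mM DTT, 0.00005% Triton X-100. Reaction started with 2 uM Z-FR-AMC; AMC fluorescence increase over 60 s gives rate.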
2A StopGo – lowers the luciferase signal of an FMDV 2A StopGo reporter | Potency, µM (titrated, usually from 57.9 µM), for the others: at the highest dose signal change, negative = less light | human cells with a luciferase reporter of 2A StopGo recoding; control for the full effect not named in the record | 410,000 tested, 1.2% active; active = well fitted falling curve with a large enough effect; inconclusive = small, poorly fitted or top-dose-only effect; inactive = no such curve, though single readings can be large or run the other way; tested in HEK293T cells; also: % is scaled to controls: 0 for no effect and ±100 for the full control effect; nearly all actives have a fitted effect of over 45% in size; luciferase light after 4 h
Cruzain Triton – blocks cruzain activity in presence of Triton detergent | P25779 | purified cruzain, Z-FR-AMC fluorescence, 0.01% Triton | Potency, µM, without a hit: max response, negative = inhibition, most hits filed as inhibitors | 200,000 tested, 0.43% active | AID 1478; active = well fitted curve in the direction sought with a large enough effect; inconclusive = small, poorly fitted or top-dose-only effect, or another doubt; inactive = no such curve, though single readings can be large; an effect the other way counts as inactive or inconclusive;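 also: plate controls were neutral wells for no effect and buffer without enzyme for full effect; nearly all actives have a fitted effect of over 40% in size; top concentration of the series not given in the record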
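Z-FR-AMC hydrolysis (2 uM substrate) by cruzain (1.5 nM) monitored kinetically at ex 360/em 450 nm after 15 min room-temperature compound exposure; 0.01% Triton X-100, pH 5.5, 5 mM DTT.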
Numbers without * were called inactive; ? = inconclusive; . = no result given; & = joins results of further samples; [ ] = dose if it differs, or a comment. Unless noted, calls follow the shape of the dose curve; as a rule, active means well fitted rising curve with a large enough effect; inconclusive means small, poorly fitted or top-dose-only effect; inactive means no such curve, though single readings can be large or run the other way. Potency is read from the fitted curve at half-maximal effect. Compounds as they come; 4.7% or so of the library scored in one or more.

SMILES	NS1 function inh	Marburg entry inh	Lassa entry inh	RE007 growth inh	SARS PLP yeast	Cruzain noTriton	2A StopGo	Cruzain Triton
CC(C)(C)N=C1NN=C(c2ccc(Cl)cc2)CS1	4%	.	.	-6%	6%	.	5%	.
CCc1ccc(CN(C)Cc2nc(COc3ccccc3)no2)nc1	-6%	3%	0%	-2%	0%	.	-16%	.
Cc1ccc(S(=O)(=O)Cc2ccc(C(=O)NCc3cccs3)o2)cc1	2%	-5%[46.1 µM]	?	-8%	6%	8%	-5%	0.6%
COc1ccc(C2NC(=O)NC(C)=C2C(=O)OC2CCCC(C)C2)cc1 (configuration not stated)	20%	?	?	-5%	7%	.	?	.
O=C(Oc1cccc2cccnc12)c1cccc([N+](=O)[O-])c1	-44%	?	7%[46.1 µM]	?	-1%	.	-5%	.
Cc1ccc(C)c(N2CCN(S(=O)(=O)c3ccc(-c4cc(C)no4)s3)CC2)c1	18%	.	.	-8%	0%	.	-31%	.
Nc1ccccc1C(=O)NNC1=C(C(=O)C(F)(F)F)CCC1	1%	6%[46.1 µM]	-21%	3%	0%	.	7%	.
Cn1c(O)c(N=NC(=O)c2cc(-c3cccs3)nc3ccccc23)c2ccccc21	24%	?	12%	-10%	12%	10µM*	-3%	-1.4%
O=C1CC(N2CCC(c3nc4ccccc4o3)CC2)C(=O)N1Cc1cccs1 (configuration not stated)	-43%	-5%[46.1 µM]	-15%	?	-10%	?	-25%	-1.8%
COc1cc([C@@H]2C[C@H]3CN(c4ccccc4)C(=O)[C@]34CCCN24)cc(OC)c1OC	1%	.	.	18%	1%	.	-10%	.
COc1ccccc1NC(=O)Cn1cnc2sc(C(=O)NCc3ccco3)c(C)c2c1=O	-17%	1%	5%	3%	8%	1%	-25%	2.8%
Cc1ccc(C2CC(=O)Nc3c2ccc2ccccc32)cc1[N+](=O)[O-] (configuration not stated)	25%	?	?	4%	17%	?	?	-11%
CCc1nnc(NC(=O)c2ccc(S(=O)(=O)N3CCCC(C)C3)cc2)s1 (configuration not stated)	3%	8%[46.1 µM]	2%	-5%	-2%	.	0%	.
COc1ccc(S(=O)(=O)N2N=C(c3ccc(NS(C)(=O)=O)cc3)CC2c2ccco2)cc1 (configuration not stated)	.	10%	0.65µM*	3%	1%	.	-7%	.
Cc1ccc(S(=O)(=O)c2ccc(Cl)cc2)cc1S(=O)(=O)NC(C)C(=O)O (configuration not stated)	3%	?	7%	22%	9%	-1%	-10%	-1.3%
C=CCN1C(=O)[C@@H]2Cc3c([nH]c4ccccc34)C(c3ccc(O)cc3)N2C1=S (some centres not stated)	11%	.	.	-5%	-4%	.	-12%	.
COc1ccccc1N1CCN(Cc2ccc(Br)cc2)CC1	-27%	.	.	-4%	-9%	.	-7%	.
CCOc1ncccc1C(=O)NC(C)CCc1ccccc1 (configuration not stated)	-82%	-8%	?	3%	-9%	.	-6%	.
COc1cc(OC)c(NC(=O)c2cnn(-c3ccccc3)c2-n2cccc2)cc1Cl	.	10%[46.1 µM]	1%[46.1 µM]	.	.	-2%	-4%	0.0%
COc1ccc(CC(=O)NC2CC(=O)N(c3cccc(F)c3)C2)cc1 (configuration not stated)	.	.	4%[46.1 µM]	.	.	4%	-10%	0.4%
O=C(CCC1CCCC1)Nc1ccc([N+](=O)[O-])cn1	-2%	?	-27%	6%	-35%	-7%	41%[activator]	-5.5%
CCCC(C(=O)NC(C)(C)C)N(CC1CCCO1)C(=O)c1snc(C(N)=O)c1N (configuration not stated)	.	6%[46.1 µM]	-12%	-3%	1%	.	1%	.
O=C(O)CCSc1nnc(COc2cccc3cccnc23)n1-c1ccccc1	3%	8%[46.1 µM]	4%	0%	0%	.	-4%	.
COC(=O)[C@@H]1CCCN1C(=O)CCc1nnc(C2CCCCC2)o1	3%	?	4%[46.1 µM]	-12%	0%	.	22%	.
Cc1cc(NC(=O)CSCC(=O)Nc2ccc(Cl)c(C(F)(F)F)c2)no1	.	-13%[46.1 µM]	12%	3%	10%	.	-21%	.
CSc1ccc(CNC(C)(C)CO)cc1	3%	24%[46.1 µM]	3%[46.1 µM]	-6%	1%	.	7%	.
CNC(=O)[C@@H]1C[C@H]1[C@@H](NC(=O)OCc1ccccc1)c1ccccc1	-9%	2%	-11%	-5%	3%	2%&-2%	-3%	0.5%&0.5%
O=C1c2ccccc2C(=O)N1CCSC(=S)N1CCOCC1	7%	7%	5%	1%	3%	-1%	.	0.0%
CCN1C2=C(C(=O)CCC2)C(c2ccc(O)cc2)C2=C1CCCC2=O	1%	10%	1%	6%	3%	-9%	14%	1.8%
O=C1C2C3CCC(C3)C2C(=O)N1c1ccc2ccccc2c1 (configuration not stated)	3%	.	.	-5%	1%	.	-1%	.
CCOC(=O)C(Sc1cc(C)nc(N)n1)C(C)=O (configuration not stated)	3%	1%	9%	2%	2%	-8%	-18%	-4.6%
COc1ccc(NC(=O)c2ccc3nccnc3c2)cc1	-4%	-19%	8%	-3%	-18%	-15%	12%	-2.8%
COc1ccc(Cl)c(N2CCN(CCCNC(=O)Nc3ccc(C)cc3)CC2)c1	-7%	?	?	-7%	0%	10%	?	4.9%
c1ccc(C(c2ccccc2)N2CCN(Cc3nnnn3C3CCCCC3)CC2)cc1	7%	?	12µM*	20%	-23%	?	6%	-8.7%
CCOC(=O)c1cnc2c(C)cc(Cl)cc2c1NCCc1ccc(OC)c(OC)c1	.	10%[46.1 µM]	-23%[46.1 µM]	.	.	-4%	-12%	-2.2%
COc1cc2cc(C(c3nnnn3C3CCCC3)N(C)C3CCCCC3)c(=O)[nH]c2cc1OC (configuration not stated)	-47%	-8%	6%	-13%	-19%	6%	9%	-5.4%
CCC1(C)Cc2c(sc3nnn(CC(=O)Nc4ccc(Cl)cc4)c(=O)c23)CO1 (configuration not stated)	26%	-22%	?	7%	-5%	-7%	-28%	4.9%
C=CCC(C(=O)OC)(C(=O)OC)c1ccc([N+](=O)[O-])cc1[N+](=O)[O-]	3%	11%[46.1 µM]	12%	8%	0%	.	-19%	.
CC1=C(C(=O)OCC2CCCCC2)C(c2ccc(F)cc2)NC(=O)N1 (configuration not stated)	2%	.	.	2%	0%	.	-28%	.
N#Cc1cccc(NC(=O)CSc2ccccc2)c1	-1%	4%	7%	10%	-8%	-16%	66%[activator]	3.2%
CCCCCNc1c(C(=O)OCC)c(=O)[nH]c2ccccc12	-5%	-3%[46.1 µM]	-9%	21%	0%	11%	?	-1.9%
CCN(CC)CCCNC(=O)C1CCN(C(=O)c2cc3sccc3n2Cc2ccc(F)cc2)CC1	-6%	?	0%	-16%	-1%	1%	.	0.0%
O=C(CSc1nnnn1-c1ccccc1)Nc1ncc(Cc2ccccc2Cl)s1	6%	20%[46.1 µM]	14%	-7%	21%	11%	-14%	-1.0%
Cc1cc(C)c(S(=O)(=O)NCCS(=O)(=O)N2CCN(c3ccccc3)CC2)c(C)c1	.	.	-24%[46.1 µM]	.	.	-10%	11%	-7.7%
CCc1ccc(-c2nc(SCC(=O)NC3CC3)n[nH]2)cc1	.	-20%[46.1 µM]	?	-12%	0%	.	-13%	.
COC(=O)c1ccc(NC(=O)Nc2cccc(F)c2)cc1	-35%	?	?	-4%	-1%	.	-1%	.
CC(C)(C)S(=O)(=O)c1cnc2c(-c3ccsc3)cnn2c1N	.	?	28%	31%	1%	.	48%[activator]	.
S=C(NCCc1ccccc1)N/N=C/c1ccccc1Cl	-23%	?	15%	-17%	24%	-15%	?	-9.1%
CCCCc1oc2c(c(=O)c1C)C(=O)CC(c1ccccc1)C2 (configuration not stated)	-2%	?	?	4%	8%	-7%	.	1.7%
Cc1nc2ccc(NC(=O)CCS(=O)(=O)c3ccc(Cl)cc3)cc2s1	-2%	?	-22%	-9%	-17%	-10%	?	-10%
New compounds follow.
SMILES	NS1 function inh	Marburg entry inh	Lassa entry inh	RE007 growth inh	SARS PLP yeast	Cruzain noTriton	2A StopGo	Cruzain Triton
COc1ccc(-n2nc(C(=O)Nc3ccc(C)cn3)c3c4ccccc4n(C)c3c2=O)cc1Cl	.	5%[46.1 µM]	20%[46.1 µM]	.	.	-2%	-9%	-0.6%
CCCCNC(=O)c1sc2ncccc2c1-n1cccc1	.	.	?	.	.	-11%	36%[activator]	-4.3%
Cc1ccc(-c2nnn(CC(=O)N(CC(=O)NC3CCCCC3)c3ccccc3F)n2)o1	-5%	6%[46.1 µM]	-4%	-2%	6%	.	8%	.
COCCC(=O)N1CCc2ccc(NC(=O)c3ccc(C(F)(F)F)cc3)cc2C1	9%	.	.	-3%	-4%	.	?	.
COc1cc(NC(=O)C(NC(=O)C2CCC(C)CC2)C(C)C)cc(OC)c1OC (configuration not stated)	.	?	0%[46.1 µM]	.	.	7%	-11%	-0.4%
CC(C)C(C(=O)N1CCOCC1)N1C(=O)c2ccccc2C1=O (configuration not stated)	-5%	-5%	0%	-18%	0%	5%	6%	-4.4%
Fc1cc(F)c2ncc3c(-c4ccccc4)nn(-c4cccc(Cl)c4)c3c2c1	.	17%[46.1 µM]	7%[46.1 µM]	.	.	-16%	-2%	-1.3%
Cc1cccc(NC(=S)N=Nc2c(O)[nH]c3ccccc23)c1	11%	?	?	3%	-5%	-18%	-28%	-6.0%
O=c1[nH]c2cc(S(=O)(=O)CCO)ccc2o1	2%	.	.	-6%	0%	.	-18%	.
CCOC(=O)CSc1nnc(CNC(=O)c2cccs2)n1-c1ccccc1	1%	26%	16%	-8%	-3%	2%	-13%	3.8%
O=C(Nc1nccs1)C1CC2CCC1C2 (configuration not stated)	9%	11%	20%	9%	13%	0%	-7%	6.5%
COc1ccccc1C(C#N)N1N=C(C)CC1(C)C (configuration not stated)	-1%	-22%[46.1 µM]	8%[46.1 µM]	-3%	2%	.	-10%	.
